High-throughput results (PubChem BioAssay)
Vif A3G: inhibitors of Vif binding to APOBEC3G peptide, primary screen, biochemical, TR-FRET, GST-Vif 1-94, biotin-A3G peptide, dose response retest (AID 1117319) | TR-FRET GST-Vif / biotin-A3G peptide binding; higher % means a stronger effect; test concentration not given here; strong numbers were not always called active | one-dose inhibition, %; IC50 in µM for titrated hits | actives 0.57% (n = 260,000);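 active = above the screen mean plus three standard deviations and confirmed in dose response; inconclusive = results disagree or hit not tested in dose response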;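 note: Vif residues 1-94 fused to GST binding biotinylated APOBEC3G peptide 110-148; 0% = full assay without inhibitor and 100% = GST in place of GST-Vif; retest series ran down from 100 µM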
Calb FLC: C. albicans growth inhibition with fluconazole, primary screen, CaCi-2 strain, Alamar Blue fluorescence | C. albicans CaCi-2 (fluconazole-resistant clinical isolate) + fluconazole, 48 h | growth inhibition, % (no concentration beside the values) | actives 0.57% (n = 300,000);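 active = most replicates above 75%; inconclusive = exactly half above 75%; inactive = most below 75%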;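 note: all wells also contain fluconazole at 8 µg/ml as a sub-toxic cotreatment; 0% = median of DMSO wells and 100% = median of geldanamycin control wells; wells of about 8 µL received 7.5 nL stock; the first replicate is given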
ALR inh: inhibitors of human ALR sulfhydryl oxidase, primary screen, biochemical, H2O2 detection, HRP-luminol luminescence, single point; purified ALR, DTT oxidation; inhibition, % (test concentration not listed); actives 3.8% (n = 290,000); AID 485317, 2010;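 active = mean and each replicate at 75% or more; inconclusive = only one of the two met; inactive = neither met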;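 note: stock transfer was 7.5 nL into about 7.5 µL; 0% = neutral wells and 100% = wells with inactivated enzyme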
Target sequence (P55789 whole entry, looked up): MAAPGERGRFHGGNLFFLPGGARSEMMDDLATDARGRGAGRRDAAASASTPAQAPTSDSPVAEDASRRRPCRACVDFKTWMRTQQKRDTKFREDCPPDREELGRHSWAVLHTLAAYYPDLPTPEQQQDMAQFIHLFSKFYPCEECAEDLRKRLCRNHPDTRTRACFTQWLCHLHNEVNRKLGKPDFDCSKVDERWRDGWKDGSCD
HNF4A DNA FP: change in binding of human HNF4A to DNA, primary screen, biochemical, fluorescence polarization, FITC-DNA; Hepatocyte nuclear factor 4-alpha (Homo sapiens), P41235; 1 h; activity change, % at 10 µM; actives 0.3% (n = 360,000); AID 1224865, 2016; in the data active = activity change above about 30%, passing the limit was not always enough;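 note: controls were the assay level and a saturating level of protein; the project sought stronger binding though the title names inhibitors; some compounds called inactive have numbers as strong as hits; positive values seem to mean higher polarization but the record does not say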
B2AR ag: beta2AR agonists driving receptor internalization, primary screen, cell-based, FAP fluorogen, flow cytometry; response, % (concentration not given with the values); Beta-2 adrenergic receptor (Homo sapiens), P07550; actives 0.43% (n = 340,000); Am2.2-beta2AR cells; reference of the scale not given here; AID 504454, 2011;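 active = response above a set limit, near 3 SD of response in nonfluorescent compounds, cut at about 42% in these data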;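 note: stock transfer was 100 nL into about 11 µL; a reference agonist was the positive control; negative values mostly stem from fluorescent compounds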
Target sequence (P07550 whole entry, looked up): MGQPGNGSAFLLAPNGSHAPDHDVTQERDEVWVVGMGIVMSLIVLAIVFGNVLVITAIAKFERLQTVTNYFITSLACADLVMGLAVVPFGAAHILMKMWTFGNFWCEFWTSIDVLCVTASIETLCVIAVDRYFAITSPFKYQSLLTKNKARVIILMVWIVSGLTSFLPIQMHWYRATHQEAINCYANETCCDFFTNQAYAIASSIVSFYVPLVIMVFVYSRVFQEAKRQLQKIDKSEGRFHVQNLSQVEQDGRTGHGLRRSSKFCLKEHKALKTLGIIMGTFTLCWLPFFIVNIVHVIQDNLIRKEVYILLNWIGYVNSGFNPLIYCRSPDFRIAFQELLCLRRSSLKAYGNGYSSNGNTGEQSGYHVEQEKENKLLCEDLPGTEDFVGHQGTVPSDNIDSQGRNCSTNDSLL
LANA-H2B inh: blockers of LANA interaction with H2A/H2B – biochemical, FP readout, HTS, primary screen; AID 2629, 2010; inhibition, % (concentration not given with the values); actives 0.6% (n = 320,000); cell-free LANA-H2A/H2B peptide, fluorescence polarization; in the data active = inhibition mostly above about 10%, no sharp cut-off; inactive = mostly below about 6.7%;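 note: stock transfer was 7.5 nL into about 10 µL; 0% = median of vehicle wells and 100% = median of positive control wells; one replicate is shown; the record names a cut of 25% in any replicate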
RanGTP-Impb inh: inhibitors of RanGTP-importin-beta interaction, primary screen, biochemical, FRET, CFP-Ran, YFP-importin-beta, homogeneous; cell-free CFP-Ran/YFP-importin-beta FRET ratio; inhibition, % (no concentration beside the values); actives 1.1% (n = 300,000); Ran GTPase (GTP-bound) - importin-beta complex;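 active = most replicates above 15%; inconclusive = exactly half above 15%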;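 note: 0% = DMSO wells and 100% = Ran loaded with GDP instead of GTP; wells of about 40 µL received 100 nL stock; the first replicate is given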
* = called active by the depositor; & = joins results of further samples.

What do the screens show for `c1ccc2c3c(ccc2c1)OCC1CONC31` (configuration not stated)?
Vif A3G: 7%; Calb FLC: -1; ALR inh: -14; LANA-H2B inh: -1.4; RanGTP-Impb inh: 5.8

How did CC1(C)CC(=O)C(C=NCCN2CCN(C(=O)Cc3ccc(F)cc3)CC2)=C(O)C1 do in these assays?
Vif A3G: 29%; Calb FLC: -2; ALR inh: -6; HNF4A DNA FP: 0.7; B2AR ag: -4; LANA-H2B inh: -0.1; RanGTP-Impb inh: -0.7

Results for CN1C(=O)c2ccccc2Sc2ccc(C(=O)N3CCC4(CC3)OCCO4)cc21 ?
Vif A3G: 4%&8%; Calb FLC: 1; ALR inh: -25; HNF4A DNA FP: 3.0; B2AR ag: 2; LANA-H2B inh: 3.2; RanGTP-Impb inh: 6.1

Results for c1ccc(C2CN3CCC2CC3)cc1 (configuration not stated) ?
Calb FLC: 5; ALR inh: -5; HNF4A DNA FP: -3.2; B2AR ag: 4; LANA-H2B inh: 0.1; RanGTP-Impb inh: 1.1

What do the screens show for `CN(C)C(Cc1ccc(Cl)cc1)C(=O)c1ccccc1` (configuration not stated)?
Vif A3G: 13%; Calb FLC: 20; ALR inh: 1; HNF4A DNA FP: 0.8; B2AR ag: 3; LANA-H2B inh: -2.1; RanGTP-Impb inh: 6.0

What do the screens show for `COc1ccc(CNC(=O)CCC(=O)N2C[C@H]3C[C@H](C2)c2cccc(=O)n2C3)cc1`?
Calb FLC: -3; ALR inh: -15; HNF4A DNA FP: 2.4; B2AR ag: 7; LANA-H2B inh: 3.5; RanGTP-Impb inh: -0.4

How did CCOC(=O)C1CCN(/C=C2/C(=O)NC(=O)N(c3ccc(OCC)cc3)C2=O)CC1 do in these assays?
Vif A3G: -1%; ALR inh: 4; HNF4A DNA FP: 0.5; B2AR ag: -1; LANA-H2B inh: -5.0

How did CCN(CC)c1nc2c(C)cccn2c(=O)c1C=C1C(=O)NC(=O)NC1=O do in these assays?
Vif A3G: 1%; Calb FLC: 4; ALR inh: 3; HNF4A DNA FP: -1.0; B2AR ag: -11; LANA-H2B inh: 0.4; RanGTP-Impb inh: 0.7

What do the screens show for `COC(=O)C1=C(c2ccc3ccccc3c2)C[C@@H]2CC[C@H]1N2C(=O)N1CCOCC1`?
ALR inh: -7; HNF4A DNA FP: -0.8; B2AR ag: -8; LANA-H2B inh: -2.4

Results for COCCNC(=O)N1[C@H]2CC[C@@H]1C(C(=O)OC)=C(c1ccc(OC)c(OC)c1)C2 ?
ALR inh: 0; HNF4A DNA FP: -2.1; B2AR ag: 1; LANA-H2B inh: -1.7

Results for OC(CNCCc1c[nH]c2ccccc12)c1ccccc1 (configuration not stated) ?
Calb FLC: -7; ALR inh: -4; HNF4A DNA FP: -1.4; B2AR ag: -5; LANA-H2B inh: -11; RanGTP-Impb inh: -0.3

How did CC(Cc1ccccc1)NC(=O)c1ccc(N)cc1 (configuration not stated) do in these assays?
Calb FLC: -60; ALR inh: -14; HNF4A DNA FP: -1.6; B2AR ag: -4; LANA-H2B inh: 1.6; RanGTP-Impb inh: -3.2

Results for COC(=O)C1=C(c2ccc3ccccc3c2)C[C@@H]2CC[C@H]1N2C(=O)NCc1ccc(C(F)(F)F)cc1 ?
ALR inh: -4; HNF4A DNA FP: 2.8; B2AR ag: 3; LANA-H2B inh: 1.5

How did CN(C)C(=O)Oc1ccc(-c2cn3cc(C(F)(F)F)ccc3n2)cc1 do in these assays?
Vif A3G: 5%; Calb FLC: -3; ALR inh: -2; HNF4A DNA FP: -1.1; B2AR ag: -4; LANA-H2B inh: 4.4; RanGTP-Impb inh: 5.4

What do the screens show for `Cc1cc2ccccn2c1C(C[N+](=O)[O-])c1c(F)cccc1Cl` (configuration not stated)?
Calb FLC: 88*; ALR inh: 0; HNF4A DNA FP: 1.9; B2AR ag: 2; LANA-H2B inh: 2.7; RanGTP-Impb inh: 3.6

Results for O=C1NC(=O)N(c2cccc(F)c2)C(=O)/C1=C/c1ccc(N2CCOCC2)cc1 ?
Vif A3G: inconclusive; Calb FLC: 7; ALR inh: 22; HNF4A DNA FP: -0.5; B2AR ag: -2; LANA-H2B inh: -1.1; RanGTP-Impb inh: 4.9

What do the screens show for `O=Cc1cn(CCCOc2ccccc2)c2ccccc12`?
Vif A3G: 0%; Calb FLC: 1; ALR inh: 0; HNF4A DNA FP: -1.0; B2AR ag: 12; LANA-H2B inh: 3.3; RanGTP-Impb inh: -0.1

What do the screens show for `C=CCn1c(O)c(C(C)=NCCC2=CCCCC2)c(=O)[nH]c1=O`?
Vif A3G: -1%; Calb FLC: 1; ALR inh: -2; HNF4A DNA FP: 1.3; B2AR ag: 4; LANA-H2B inh: -0.3; RanGTP-Impb inh: -2.6

Results for COc1ccccc1CNCCc1ccc(F)cc1 ?
Vif A3G: -8%; Calb FLC: 3; ALR inh: -13; HNF4A DNA FP: 2.3; B2AR ag: -1; LANA-H2B inh: -1.9; RanGTP-Impb inh: -0.6

What do the screens show for `COc1ccc(CN2CCN(Cc3ccccc3)CC2)c(OC)c1`?
Vif A3G: 1%; Calb FLC: -4; ALR inh: -3; HNF4A DNA FP: 0.6; B2AR ag: 3; LANA-H2B inh: -0.6

As a short view, some entries already given:
Results for COc1ccccc1CNCCc1ccc(F)cc1 ?
Vif A3G: -8%; Calb FLC: 3; ALR inh: -13; HNF4A DNA FP: 2.3; B2AR ag: -1; LANA-H2B inh: -1.9; RanGTP-Impb inh: -0.6

What do the screens show for `COc1ccc(CN2CCN(Cc3ccccc3)CC2)c(OC)c1`?
Vif A3G: 1%; Calb FLC: -4; ALR inh: -3; HNF4A DNA FP: 0.6; B2AR ag: 3; LANA-H2B inh: -0.6

New compounds follow.
Results for CN1CCCC(C(=O)c2ccccc2)C1 (configuration not stated) ?
Vif A3G: 8%; Calb FLC: 17; ALR inh: 2; HNF4A DNA FP: -0.1; B2AR ag: 1; LANA-H2B inh: 6.6; RanGTP-Impb inh: -1.6

How did COc1ccc(CC2C(=O)NC(=O)NC2=O)c(OC)c1 do in these assays?
Vif A3G: 24%; Calb FLC: 1; ALR inh: 1; HNF4A DNA FP: -0.8; B2AR ag: 3; LANA-H2B inh: 1.1; RanGTP-Impb inh: 0.0

Results for Cc1ccc(/C=C2/C(=O)NC(=O)N(CC3CCCO3)C2=O)s1 (configuration not stated) ?
Vif A3G: 11%; Calb FLC: -3; ALR inh: 97*; HNF4A DNA FP: -2.6; B2AR ag: 8; LANA-H2B inh: -1.6; RanGTP-Impb inh: -1.6

What do the screens show for `CC(C)(C)OC(=O)c1c(N)n(Cc2ccco2)c2nc3ccccc3nc12`?
Vif A3G: 23%&-1%; Calb FLC: 16; ALR inh: -5; HNF4A DNA FP: 2.4; B2AR ag: 8; LANA-H2B inh: -5.5; RanGTP-Impb inh: 32*

Results for Cc1c(Cl)cccc1NC(=S)N1CC2CC(C1)c1cccc(=O)n1C2 (configuration not stated) ?
Vif A3G: 10%; Calb FLC: -5; HNF4A DNA FP: -2.1; B2AR ag: 1; LANA-H2B inh: -3.1; RanGTP-Impb inh: inconclusive

How did CN1C(=O)C(=Cc2ccc(N3CCOCC3)o2)C(=O)N(C)C1=O do in these assays?
Vif A3G: -7%; Calb FLC: -8; HNF4A DNA FP: 153; B2AR ag: -3; LANA-H2B inh: -50; RanGTP-Impb inh: -11

Results for Nc1c2c(nc3sc4c(c13)CCCCC4)CCCC2 ?
Vif A3G: -2%; Calb FLC: -12; ALR inh: 17; HNF4A DNA FP: 1.7; B2AR ag: 24; LANA-H2B inh: -2.7; RanGTP-Impb inh: -2.3

How did CC(=O)Nc1ccccc1C(=O)OCc1ccccc1F do in these assays?
Calb FLC: -1; ALR inh: -13; HNF4A DNA FP: 2.1; B2AR ag: 4; LANA-H2B inh: -1.9; RanGTP-Impb inh: 1.5

What do the screens show for `c1cnc(N2CCNCC2)nc1`?
Vif A3G: 31%; ALR inh: 7; HNF4A DNA FP: 4.2; B2AR ag: 3; LANA-H2B inh: 1.3; RanGTP-Impb inh: -0.7

What do the screens show for `Cc1ccc2c(c1)N(C(=O)CCC(=O)N1CCC3(CC1)OCCO3)CC(C)O2` (configuration not stated)?
Calb FLC: -1; ALR inh: -1; HNF4A DNA FP: 3.0; B2AR ag: -4; LANA-H2B inh: -0.8; RanGTP-Impb inh: -2.3

What do the screens show for `CN1CCc2nc3sc(C#N)c(N)c3c(-c3cccs3)c2C1`?
Vif A3G: 22%; Calb FLC: -7; ALR inh: 19; HNF4A DNA FP: 6.1; B2AR ag: -9; LANA-H2B inh: -2.7; RanGTP-Impb inh: -5.7

Results for CCN(C(=O)CN1CC=C(c2ccccc2)CC1)c1c(N)n(Cc2ccccc2)c(=O)[nH]c1=O ?
Vif A3G: 16%; Calb FLC: 2; ALR inh: -16; HNF4A DNA FP: -0.1; B2AR ag: 3; LANA-H2B inh: 1.6; RanGTP-Impb inh: 6.6

What do the screens show for `COc1ccc(CCNCc2sccc2C)cc1OC`?
Vif A3G: 3%; Calb FLC: -16; ALR inh: -2; HNF4A DNA FP: 1.1; B2AR ag: 3; LANA-H2B inh: -6.6; RanGTP-Impb inh: 4.6

Results for CN1C(=O)C(Cc2ccc(OCc3ccccc3)cc2)C(=O)N(C)C1=O ?
Vif A3G: -7%; Calb FLC: 3; ALR inh: 0; HNF4A DNA FP: 0.7; B2AR ag: -4; LANA-H2B inh: 9.0; RanGTP-Impb inh: -0.3

How did Cc1c(C(=O)N2CCC3(CC2)OCCO3)sc2ncnc(N(C)c3ccccc3)c12 do in these assays?
Vif A3G: -7%; Calb FLC: -11; ALR inh: 4; HNF4A DNA FP: -2.5; B2AR ag: -3; LANA-H2B inh: -2.0; RanGTP-Impb inh: 2.1

How did CN1CC(C(=O)c2ccc([N+](=O)[O-])cc2)C(c2ccc(Cl)cc2)C1 (configuration not stated) do in these assays?
Vif A3G: 0%; Calb FLC: -12; HNF4A DNA FP: 2.1; B2AR ag: 9; LANA-H2B inh: 0.5; RanGTP-Impb inh: 3.6

What do the screens show for `C[C@]12CCC3C(CCC4=C/C(=N/OCC(=O)NC(CCC(=O)O)C(=O)O)CC[C@@]43C)C1CCC2O` (some centres not stated)?
Vif A3G: 0%; Calb FLC: -8; ALR inh: 1; HNF4A DNA FP: 0.2; B2AR ag: 14; LANA-H2B inh: -2.6; RanGTP-Impb inh: 1.4

Results for CC(C)(C)C(=O)c1cn(CC(=O)NCc2ccco2)c2ccccc12 ?
Vif A3G: 31%; Calb FLC: 12; ALR inh: -3; HNF4A DNA FP: -2.0; B2AR ag: 3; LANA-H2B inh: 0.9; RanGTP-Impb inh: -3.2

Grouped by structure: the entries above with a tert-butyl group.
What do the screens show for `CC(C)(C)OC(=O)c1c(N)n(Cc2ccco2)c2nc3ccccc3nc12`?
Vif A3G: 23%&-1%; Calb FLC: 16; ALR inh: -5; HNF4A DNA FP: 2.4; B2AR ag: 8; LANA-H2B inh: -5.5; RanGTP-Impb inh: 32*

Results for CC(C)(C)C(=O)c1cn(CC(=O)NCc2ccco2)c2ccccc12 ?
Vif A3G: 31%; Calb FLC: 12; ALR inh: -3; HNF4A DNA FP: -2.0; B2AR ag: 3; LANA-H2B inh: 0.9; RanGTP-Impb inh: -3.2

Some of the compounds tested; rates above refer to the full screens.
